MT1-MMP act inh = MT1-MMP (human) activation inhibition; P50281; HT1080 RFP-PRO-GFP cells, GFP/RFP ratio fluorescence, overnight; percent of plate control window, DMSO zero; GFP/RFP ratio change, % at 20 µM; 0.061% of 360,000 active;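 active = GFP/RFP ratio change of at least 30% with cell ATP level not reduced by more than half and red fluorescence within 50% of control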; also: strong numbers were not always called active
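Compound: 20 µM single dose, 1% DMSO / System: HT1080 RFP-PRO-GFP cells / Controls: DMSO and RFP-L50D-GFP cell wells / Read-out basis: GFP/RFP fluorescence ratio / Schedule: overnight compound exposure at 37 °C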
UUG fidelity = yeast start codon fidelity modulation | S. cerevisiae UUG-firefly luciferase reporter, luminescence/redox ratio | 0.13% of 350,000 active | activity score, % at 18.7 µM;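 active = replicate mean at a twofold rise or more, about +100% in these data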;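 also: firefly luciferase made from a UUG start codon reports start codon fidelity; reporter light over untreated wells divided by growth signal over untreated wells; some hits fall short of that in this replicate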
MT1-MMP act inh RFP = second read-out of MT1-MMP act inh, no call of its own (marks repeat the call); RFP signal change, %; measured here: RFP expression control read;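 0 = vehicle wells; hits needed this value within 50% of zero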
Numbers without * were called inactive; & = joins results of further samples. This is a subset (hit frequency here may not be typical).

The opening 3 compounds as a preview:
SMILES	MT1-MMP act inh	MT1-MMP act inh RFP	UUG fidelity
CC(C)Oc1ccc2ccccc2c1CNC[C@H]1O[C@@H](n2ccc(=O)[nH]c2=O)[C@H](O)[C@@H]1O	1	0	-7
CS(=O)(=O)c1ccc(N2CCN(S(=O)(=O)c3cccs3)CC2)c([N+](=O)[O-])c1	-2	-2	-4
COc1ccc(C(=O)Nc2cccc(S(=O)(=O)N(C)C)c2)cc1S(=O)(=O)N1CCOCC1	-3	2	0

All compounds of this part, repeating the preview:
SMILES	MT1-MMP act inh	MT1-MMP act inh RFP	UUG fidelity
CC(C)Oc1ccc2ccccc2c1CNC[C@H]1O[C@@H](n2ccc(=O)[nH]c2=O)[C@H](O)[C@@H]1O	1	0	-7
CS(=O)(=O)c1ccc(N2CCN(S(=O)(=O)c3cccs3)CC2)c([N+](=O)[O-])c1	-2	-2	-4
COc1ccc(C(=O)Nc2cccc(S(=O)(=O)N(C)C)c2)cc1S(=O)(=O)N1CCOCC1	-3	2	0
O=C(COC(=O)COc1ccccc1)NC12CC3CC(CC(C3)C1)C2	4	7	-7
COc1cc(C(=O)NNC(=O)COc2ccccc2Cl)ccc1OCC(=O)N1CCOCC1	-2	-1	-4
CS(=O)(=O)c1ccc(Cl)c(NC(=O)C2CCCCN2S(=O)(=O)c2ccccc2)c1 (configuration not stated)	1	-3	-11
COC(=O)[C@H](CCSC)NC(=O)Cn1cnc(C(=O)Nc2ccc(C)c(C)c2)n1	3	3	-26
CCCC(=O)N1CCC1(C)C(=O)Nc1cc(OC)ccc1OC (configuration not stated)	-1	3	-22
COc1ccc(NS(=O)(=O)c2cc(NC(=O)Cc3n[nH]c(=O)c4ccccc34)ccc2OC)cc1	-2	-4	-6
COc1ccc(CCN2CC(C(=O)N(C)Cc3cccnc3)CC2=O)cc1OC (configuration not stated)	1	4	-5
COc1cc(-c2cc(=O)c3ccc(O)cc3o2)cc(OC)c1OC	6	1	-4
CCCCN1CC(=O)N2[C@@H]3c4cc(OC)ccc4OC[C@@H]3[C@H](C(=O)OCC)[C@]2(C)C1=O	0	4	9
COc1cc(C)c(CN2CCN(S(=O)(=O)c3ccc(Cl)s3)CC2)cc1OC	-2	-3	-2
N#Cc1ccc(-c2nc3ccc(Cl)cn3c2Cc2ccccc2)cc1	-7	4	-11
CN(CC(=O)O)C(=O)c1ccccc1	2	2	-27
CN(CC(=O)Nc1ccccc1Cl)C(=O)COC(=O)/C=C/c1cccc(C(F)(F)F)c1	0	1	-12
Cc1csc(NC(=O)CSc2nc3[nH]c(=O)cc(O)c3s2)n1	12	-9	2
CC(C)Oc1cc(F)ccc1-c1cc(C(=O)NCc2cccnc2)[nH]n1	1	-1	-24
C=CCN1CCS(=O)(=O)N(Cc2ccccc2)[C@@H](C(C)C)C1=O	1	1	-7
CN(Cc1ccc(OC(F)F)cc1)C(=O)c1cccc(S(=O)(=O)N2CCN(c3ccccc3)CC2)c1	10	-32	-15
COc1ccc(C(O)C2c3c(cc4c(c3OC)OCO4)CCN2C)c(CO)c1OC (configuration not stated)	1	3	-6
CN(C)c1ccc(Cc2ccc(N(C)C)cc2)cc1	7	3	-17
Cc1cc(C)n(CCCNC(=O)c2ccc(C)o2)n1	0	3	-23
COc1ccccc1CNc1nc(NCc2ccc(C)cc2C)c2sccc2n1	-3	-20	-11
CCc1ccc2c(c1)NC(=O)C2(C)Cc1ccc(C(F)(F)F)nc1 (configuration not stated)	0	0	0
Cc1cc2nc(-c3ccccc3Br)n(/C=C(\c3ccccc3)n3c(=O)[nH]c4ccccc43)c2cc1C	11	4	-14
CN1CCN(S(=O)(=O)c2cccc(C(=O)N(C)Cc3cccs3)c2)CC1	5	3	3
CC(OC(=O)/C=C/c1ccc2ccccc2n1)C(=O)N(C)c1ccccc1 (configuration not stated)	0	-10	-5
CCOC(=O)C1(C)CCCN(C(=O)c2cc(C#N)cs2)C1 (configuration not stated)	0	-3	-12
CCN(CC)C(=O)C1=C(C)N(Cc2ccccc2)C(=O)C(CC(=O)NCc2cccc3ccccc23)C1 (configuration not stated)	6	3	-7
CCOC(=O)C1=C(C)NC(C)=C(C(=O)OCC)C1c1ccc(OC)c(OC)c1	2	1	19
CCN(Cc1cccs1)C(=O)CN1C(=O)NC(c2ccccc2)(c2ccccc2)C1=O	5	6	-4
COc1ccc(CC(=O)Nc2cc(S(=O)(=O)N3CCCC3)ccc2Cl)c(OC)c1	-2	-9	-7
O=C(/C=C/[C@H]1O[C@@H](n2ccc(=O)[nH]c2=O)[C@H](O)[C@@H]1O)NC1CCN(Cc2ccccc2)C1 (some centres not stated)	3	6	-3
O=C(COC(=O)c1cc(=O)[nH]c2ccccc12)NCc1ccc(F)cc1	5	9	-2
CCN1CCN(c2ccc(S(=O)(=O)N3CCCCC3)cc2N)CC1	5	5	-17
CCOC(=O)C1=C(COC(=O)/C=C/c2cccc(F)c2)NC(=O)NC1C (configuration not stated)	4	1	-11
COc1ccc(C)cc1NC(=O)CN1C(=O)C(=O)N(C2CCCC2)C1=O	6	2	-6
O=C(c1ccc2ccccc2c1)c1cccc(F)c1C(=O)O	2	4	-16
COCCN(Cc1ccccc1)C(=O)Cc1ccc(S(=O)(=O)N2CCOCC2)s1	-2	-3	-14
CN(Cc1ccccc1)C(=O)c1[nH]cnc1C(=O)Nc1ccccc1F	1	4	-7
O=C(CN1C(=O)NC2(CCCCCC2)C1=O)Nc1ccc(Br)cc1Br	2	-2	-1
CC(OC(=O)c1ccc(F)c(S(=O)(=O)N2CCOCC2)c1)C(=O)NCC1CCCCC1 (configuration not stated)	9	4	0
COc1cc(C(=O)N2CCN(c3cccc(C(F)(F)F)c3)CC2)ccc1OCC(=O)N1CCOCC1	5	-5	3
C[C@H](NC(=O)c1ncn2c1C(=O)NC[C@@H]2C)c1ccccc1	-3	5	8
CCN(C(=O)COC(=O)C1CCC(C(C)(C)C)CC1)c1c(N)n(Cc2ccccc2)c(=O)[nH]c1=O (configuration not stated)	-12	-8	-8
CCOc1ccc(Cl)cc1-c1cc(C(=O)Nc2ccc(Br)cc2)[nH]n1	-1	-7	-22
Cc1cccc(N(Cc2ccccc2)C(=O)CN2C(=O)NC3(CCCCC3C)C2=O)c1 (configuration not stated)	-6	-2	3
CCOc1ccccc1NC(=O)C1CCCN1S(=O)(=O)c1ccccc1C(F)(F)F (configuration not stated)	-5	-5	-10
CC(C)NC(=O)c1cc(C2CCCCN2S(=O)(=O)c2ccc(C#N)cc2)on1 (configuration not stated)	2	4	-8

One compound at a time, from the list above. Values in the order: MT1-MMP act inh	MT1-MMP act inh RFP	UUG fidelity
Profile of O=C(CN1C(=O)NC2(CCCCCC2)C1=O)Nc1ccc(Br)cc1Br → 2	-2	-1
Profile of CCOc1ccccc1NC(=O)C1CCCN1S(=O)(=O)c1ccccc1C(F)(F)F (configuration not stated) → -5	-5	-10
Profile of COc1cc(C(=O)N2CCN(c3cccc(C(F)(F)F)c3)CC2)ccc1OCC(=O)N1CCOCC1 → 5	-5	3
Profile of CCN(C(=O)COC(=O)C1CCC(C(C)(C)C)CC1)c1c(N)n(Cc2ccccc2)c(=O)[nH]c1=O (configuration not stated) → -12	-8	-8
Profile of C[C@H](NC(=O)c1ncn2c1C(=O)NC[C@@H]2C)c1ccccc1 → -3	5	8

Next section
SMILES	MT1-MMP act inh	MT1-MMP act inh RFP	UUG fidelity
Cc1ccc(C)c(SCC(=O)Nc2ccc(C)c(S(=O)(=O)N3CCOCC3)c2)c1	9	-14	-18
COCCCN1C(=O)C(CC(=O)NCc2cccc3ccccc23)CC(C(=O)N(C(C)C)C(C)C)=C1C (configuration not stated)	2	4	5
Cc1cc(NC(=O)CN(C)CC(=O)Nc2ccc(Cl)c(C(F)(F)F)c2)no1	3	-7	-28
Cc1cc(C)cc(OCC(=O)Nc2ccc(-n3cnnn3)cc2)c1	3	4	14
COc1ccc(N2CCN(C(=O)c3cc4c(s3)CCCCC4)CC2)cc1	2	3	-3
COc1ccc2c(CC(=O)OCC(=O)N(C)c3c(N)n(Cc4ccccc4)c(=O)[nH]c3=O)coc2c1	-5	-1	-9
C[C@H](CO)N1C[C@H](C)[C@@H](CN(C)C(=O)c2cc(-c3ccccc3)on2)OCc2cn(nn2)CCCC1=O	1	7	-20&18
CCOc1cc(N2CCOCC2)c(OCC)cc1NC(=O)CSc1nc(N)cc(=O)[nH]1	1	2	-3
COc1ccc(OC)c(S(=O)(=O)NC(=O)C2(C)CCN2C(=O)CC2CCCC2)c1 (configuration not stated)	-2	-1	-1
CC(C)c1cccc(-c2csc(C(C)(O)c3ccccc3)n2)c1 (configuration not stated)	4	-7	-1
O=C(COC(=O)c1ccc(O)cc1)Nc1cccc(S(=O)(=O)NC2=NCCC2)c1	3	3	-18
CC1CCCCN1C(=O)COC(=O)CSc1ccc(C(N)=O)cc1[N+](=O)[O-] (configuration not stated)	3	-5	-19
C[C@@]12C(=O)Nc3cc(Cl)ccc3C(=O)N1[C@H]1c3cc(Cl)ccc3OC[C@@H]1[C@@H]2c1ccccc1	-20	-15	-10
CCCNC(=O)C1(C)CCN(CCC(=O)c2ccc(Br)cc2)C1 (configuration not stated)	-2	0	-17
CCOC(=O)C1=C[C@@H](c2ccccc2)N(S(=O)(=O)c2ccc(C)cc2)[C@H]1c1ccccc1Cl	-10	-19	-16
COc1ccc(NC(=O)CSc2nnc(-c3ccc(F)cc3)o2)cn1	-1	0	-9
CCCn1nc(C(=O)N2CCc3ccccc32)c2ccccc2c1=O	-2	-1	-14
COc1ccc(CN2C(=O)C(CC(=O)NCCc3ccccn3)CC(C(=O)N3CCOCC3)=C2C)cc1 (configuration not stated)	2	7	-7
CCN(C(=O)CSc1nnc(C(C)N(C)C)n1-c1ccc(F)cc1)C1CCS(=O)(=O)C1 (configuration not stated)	2	0	-15
O=C(NOCc1ccccc1)c1ccc(Cl)cc1Cl	2	5	-75

Just MT1-MMP act inh and UUG fidelity (four entries from above):
| molecule | MT1-MMP act inh | UUG fidelity |
| --- | --- | --- |
| O=C(COC(=O)c1ccc(O)cc1)Nc1cccc(S(=O)(=O)NC2=NCCC2)c1 | 3 | -18 |
| CC1CCCCN1C(=O)COC(=O)CSc1ccc(C(N)=O)cc1[N+](=O)[O-] (configuration not stated) | 3 | -19 |
| C[C@@]12C(=O)Nc3cc(Cl)ccc3C(=O)N1[C@H]1c3cc(Cl)ccc3OC[C@@H]1[C@@H]2c1ccccc1 | -20 | -10 |
| CCCNC(=O)C1(C)CCN(CCC(=O)c2ccc(Br)cc2)C1 (configuration not stated) | -2 | -17 |

(listing goes on)
SMILES	MT1-MMP act inh	MT1-MMP act inh RFP	UUG fidelity
Cc1nccn1-c1ccc(NC(=O)[C@H]2O[C@@H](n3cnc4c(N)ncnc43)[C@H](O)[C@@H]2O)cc1	3	7	-10
Cc1cc(C)cc(C(=O)OCC(=O)N2CCCCCC2)c1	-2	2	0
Cc1cn(CC(=O)NCCc2ccccn2)c(=O)[nH]c1=O	2	4	10
O=c1cc(-c2ccc(O)cc2)oc2c(-c3c(O)cc(O)c4c(=O)cc(-c5ccc(O)cc5)oc34)c(O)cc(O)c12	-5	2	-12
Cc1ccc(S(=O)(=O)N2C[C@H]3[C@H]4C(=O)N(c5ccccc5)C(=O)[C@H]4CC(=O)[C@H]3[C@@H]2c2ccccc2)cc1	3	4	-11
CCn1nc(C(=O)N2CCN(Cc3nc4ccccc4s3)CC2)c2ccccc2c1=O	-4	-7	2
Cc1ccc(C)c(S(=O)(=O)N2CCN(C(=O)Cc3sc(C)nc3-c3ccc(F)cc3)CC2)c1	-4	-3	-10
C=CS(=O)(=O)N(Cc1ccc(Cl)c(Cl)c1)C[C@@H](O)CO	7	7	-17

Bioassay records (PubChem)
